Marburg entry inh = qHTS for inhibitors of binding or entry into cells for Marburg Virus. Marburg virus pseudotyped entry inhibition, cell reporter; control for the full effect not named in the record; about a third of the inactives were read at about 46 µM. Potency, µM (highest dose often 37.8 µM), for inactives: top-dose activity change, negative = inhibition, most hits filed as inhibitors. actives 1.8% (n = 300,000). AID 540276, 2011; active = well fitted inhibition curve with a large enough effect; inconclusive = small, poorly fitted or top-dose-only effect, or effect the other way; inactive = flat fitted curve, though single readings scatter; tested in HEK293 cells; about a fifth of its hits are not listed in these tables; also: % is scaled to controls: 0 for no effect and ±100 for the full control effect; luciferase read-out
Lassa entry inh = qHTS for Inhibitors of binding or entry into cells for Lassa Virus | actives 1.2% (n = 300,000) | Lassa virus pseudotype entry inhibition, cell reporter; control for the full effect not named in the record | Potency, µM (series often up to 37.9 µM), without a hit: at the top dose activity change, negative = inhibition, actives largely listed as inhibitors; active means well fitted inhibition curve with a large enough effect; inconclusive means small, poorly fitted or top-dose-only effect, or effect the other way; inactive means flat fitted curve, though single readings scatter; tested in HEK293 cells; also: % is scaled to controls: 0 for no effect and ±100 for the full control effect; nearly all actives have a fitted effect of over 50% in size; luciferase read-out
StopGo reporter = High Throughput Screening for Foot and Mouth Disease Virus Antivirals | human cells with a luciferase reporter of 2A StopGo recoding; control for the full effect not named in the record | Potency, µM (doses to about 57.9 µM), inactives show at the highest dose signal change, negative = less light | actives 1.2% (n = 410,000); active = well fitted falling curve with a large enough effect; inconclusive = small, poorly fitted or top-dose-only effect; inactive = no such curve, though single readings can be large or run the other way; tested in HEK293T cells; also: % is scaled to controls: 0 for no effect and ±100 for the full control effect; nearly all actives have a fitted effect of over 45% in size; luciferase light after 4 h
Cruzain noTriton = qHTS Assay for Promiscuous and Specific Inhibitors of Cruzain (without detergent); Cruzipain (Trypanosoma cruzi), P25779; purified cruzain, Z-FR-AMC fluorescence, no detergent; Potency, µM, for the others: max response, negative = inhibition, usual class: inhibitors; actives 2.3% (n = 200,000); AID 1476, 2009; active = well fitted curve in the direction sought with a large enough effect; inconclusive = small, poorly fitted or top-dose-only effect, or another doubt; inactive = no such curve, though single readings can be large; an effect the other way counts as inactive or inconclusive;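 also: plate controls were enzyme without inhibitor for no effect and buffer without enzyme for full effect; nearly all actives have a fitted effect of over 40% in size; top concentration of the series not given in the record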
Target sequence (P25779 123-467 limits assumed): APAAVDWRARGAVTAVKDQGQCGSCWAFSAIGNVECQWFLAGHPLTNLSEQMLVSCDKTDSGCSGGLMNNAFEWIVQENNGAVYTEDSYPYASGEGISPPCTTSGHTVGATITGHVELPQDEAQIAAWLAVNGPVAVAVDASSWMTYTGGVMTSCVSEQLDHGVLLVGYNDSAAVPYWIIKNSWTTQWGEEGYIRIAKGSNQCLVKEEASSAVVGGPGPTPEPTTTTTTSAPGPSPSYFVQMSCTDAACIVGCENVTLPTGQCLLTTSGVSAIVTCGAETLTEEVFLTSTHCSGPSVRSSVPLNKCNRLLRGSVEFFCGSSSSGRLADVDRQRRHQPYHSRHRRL
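Purified cruzain at 1.5 nM, pre-incubated 15 min with compound at room temperature in 100 mM sodium acetate pH 5.5, 5 mM DTT, 0.00005% Triton X-100. Reaction started with 2 uM Z-FR-AMC; AMC fluorescence increase over 60 s gives rate.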
RE007 growth inh = qHTS Assay for Inhibitors of the HIV-1 protein Vpr; S. pombe RE007 Vpr strain, BacTiter-Glo ATP luminescence, 24 h; control for the full effect not named in the record; Potency, µM (titrated, usually from 92.2 µM), for the others: at the top dose activity change, negative = less growth; actives 0.21% (n = 360,000); active = well fitted falling curve with a large enough effect; inconclusive = small, poorly fitted or top-dose-only effect; inactive = no such curve, though single readings can be large or run the other way;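 also: % is scaled to controls: 0 for no effect and ±100 for the full control effect; nearly all actives have a fitted effect of over 50% in size; the assay follows cell death caused by Vpr and the record does not say whether a fall means rescue or toxicity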
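Fission yeast RE007 carrying one integrated HIV-1 vpr copy, seeded at OD 0.01 in PMG+AL medium with 23 nL pinned compound. Grown 24 h at 30 degrees; viability read by BacTiter-Glo luminescence after 5 min.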
Cruzain inh Det = qHTS Assay for Promiscuous and Specific Inhibitors of Cruzain (with detergent); purified cruzain, Z-FR-AMC fluorescence, 0.01% Triton; Potency, µM, without a hit: max response, negative = inhibition, usual class: inhibitors; actives 0.43% (n = 200,000); active = well fitted curve in the direction sought with a large enough effect; inconclusive = small, poorly fitted or top-dose-only effect, or another doubt; inactive = no such curve, though single readings can be large; an effect the other way counts as inactive or inconclusive;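 also: plate controls were neutral wells for no effect and buffer without enzyme for full effect; nearly all actives have a fitted effect of over 40% in size; top concentration of the series not given in the record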
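Detergent-containing arm of a paired screen for aggregation-based inhibition: 0.01% Triton X-100 present. Cruzain at 1.5 nM cleaved 2 uM Z-FR-AMC at pH 5.5 with 5 mM DTT; AMC fluorescence gain over 60 s measured activity.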
SARS PLP yeast = qHTS of Yeast-based Assay for SARS-CoV PLP | S. cerevisiae expressing SARS-CoV PLpro, growth rescue; control for the full effect not named in the record | Potency, µM (doses to about 32.9 µM), without a hit: at the top dose activity, positive = growth rescue | actives 0.19% (n = 330,000); also: 0% is about no effect; nearly all actives have a fitted effect of over 55% in size; growth read by luminescence after 48 h
NS1 function inh = qHTS Assay for Inhibitors of Influenza NS1 Protein Function; S. cerevisiae slowed by influenza A NS1, growth recovery by OD600; AID 2326, 2010; actives 0.4% (n = 270,000); Potency, µM (top dose mostly 46.1 µM), for inactives: top-dose activity, positive = more growth; also: actives are rising curves; nearly all actives have a fitted effect of over 50% in size
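OD600 was taken as the measure of yeast growth restored by compound in an NS1-expressing S. cerevisiae strain. Cells had been washed out of glucose medium and diluted 1:100 into galactose -URA medium, pH 6.0.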
* marks the source's active call; other numbers are inactive results; [ ] = dose if it differs, or a comment. Unless noted, calls follow the shape of the dose curve; as a rule, active means well fitted rising curve with a large enough effect; inconclusive means small, poorly fitted or top-dose-only effect; inactive means no such curve, though single readings can be large or run the other way. Potency is read from the fitted curve at half-maximal effect.

What do the screens show for `O=C1CCC([N+](=O)[O-])C(c2ccc(F)c(Br)c2)N1` (stereo unspecified)?
Marburg entry inh: 4%[46.1 µM]; Lassa entry inh: 5%[46.1 µM]; StopGo reporter: -11%; RE007 growth inh: 15%; SARS PLP yeast: 2%; NS1 function inh: 5%

What do the screens show for `CCCC(=O)Nc1nnc(SCC(=O)NCc2ccc3c(c2)OCO3)s1`?
Marburg entry inh: 11%[46.1 µM]; Lassa entry inh: inconclusive; StopGo reporter: 26%; RE007 growth inh: 22%; SARS PLP yeast: -3%

How did CCOC(=O)[C@H]1[C@H]2COc3cc(OC)ccc3[C@@H]2N2C(=O)N(c3ccc(Cl)cc3)C(=O)[C@@]12C do in these assays?
StopGo reporter: 0%; RE007 growth inh: 1%; SARS PLP yeast: -7%; NS1 function inh: 12%

Results for Cc1ccc(S(=O)(=O)Nc2ccc(-c3ccc(N4CCCCCC4)nn3)cc2)c(C)c1 ?
Lassa entry inh: inconclusive; StopGo reporter: 46%[activator]; Cruzain noTriton: -24%; Cruzain inh Det: -0.8%

What do the screens show for `CCC1Sc2ccc(S(=O)(=O)CCC(=O)NC3CCCCCC3)cc2NC1=O` (stereo unspecified)?
Marburg entry inh: inconclusive; Lassa entry inh: inconclusive; StopGo reporter: -19%; RE007 growth inh: 13%; SARS PLP yeast: 2%; NS1 function inh: -12%

Results for Cc1ccc(C(=O)NCC(=O)NCc2ccccc2F)s1 ?
Marburg entry inh: 1%[46.1 µM]; Lassa entry inh: -13%; StopGo reporter: 37%[activator]; RE007 growth inh: 7%; SARS PLP yeast: 5%

How did Cc1cccc(N=C2NN=C(c3c[nH]c4ccccc34)CS2)c1 do in these assays?
Marburg entry inh: -28%; Lassa entry inh: 15µM*; StopGo reporter: 12%; Cruzain noTriton: 7.9µM*; RE007 growth inh: -19%; Cruzain inh Det: -1.3%; SARS PLP yeast: -18%; NS1 function inh: 14µM*

What do the screens show for `Clc1ccc(Oc2cnns2)cc1Cl`?
Marburg entry inh: 2%; Lassa entry inh: 4%; StopGo reporter: 2%; Cruzain noTriton: -4%; RE007 growth inh: -8%; Cruzain inh Det: 1.1%; SARS PLP yeast: -3%; NS1 function inh: 7%

How did CCc1nnc(NC(=O)c2ccc3c(c2)C(=O)N(C(C)(C)C)C3=O)s1 do in these assays?
Marburg entry inh: inconclusive; Lassa entry inh: -6%; StopGo reporter: 43%[activator]; Cruzain noTriton: -15%; RE007 growth inh: 13%; Cruzain inh Det: 3.3%; SARS PLP yeast: -3%; NS1 function inh: 9%

How did CCCc1cc(=O)[nH]c(SCC(=O)Nc2sccc2C#N)n1 do in these assays?
Marburg entry inh: -11%; Lassa entry inh: 23%; StopGo reporter: -10%; RE007 growth inh: -2%; SARS PLP yeast: -2%

How did COC(=O)c1ccc(NC(=O)CSc2nnc(-c3ccccc3)n2C)cc1 do in these assays?
Marburg entry inh: 27%; Lassa entry inh: 6%; StopGo reporter: 9%; Cruzain noTriton: -12%; RE007 growth inh: -4%; Cruzain inh Det: 4.4%; SARS PLP yeast: -6%; NS1 function inh: 13%

How did Cc1cc(C)nc(/N=C(\N)Nc2cccc([N+](=O)[O-])c2)n1 do in these assays?
Marburg entry inh: 5%; Lassa entry inh: 0%; StopGo reporter: -23%; Cruzain noTriton: 2%; RE007 growth inh: -12%; Cruzain inh Det: -1.9%; SARS PLP yeast: 9%; NS1 function inh: -5%

Results for O=C(Cn1c(NCCCO)nc2ccccc21)c1ccc(Cl)cc1Cl ?
Marburg entry inh: inconclusive; Lassa entry inh: -1%[46.1 µM]; StopGo reporter: -1%; RE007 growth inh: -1%; SARS PLP yeast: 0%; NS1 function inh: 2%

How did Cc1ccc(-n2c(=O)c3ccc(C(=O)NCc4ccco4)cc3n(Cc3ccc(Cl)cc3)c2=O)cc1 do in these assays?
Marburg entry inh: 16%[46.1 µM]; Lassa entry inh: -14%[46.1 µM]; StopGo reporter: 10%; Cruzain noTriton: -9%; Cruzain inh Det: -4.3%

How did NC(=O)C1CCN(C2CC(=O)N(c3cccc(F)c3)C2=O)CC1 (stereo unspecified) do in these assays?
Marburg entry inh: -9%; Lassa entry inh: 5%; StopGo reporter: -21%; Cruzain noTriton: 0%; RE007 growth inh: 14µM*; Cruzain inh Det: 2.4%; SARS PLP yeast: -25%; NS1 function inh: -75%

What do the screens show for `O=c1[nH]c2ccccc2nc1C(F)(F)C(F)F`?
Marburg entry inh: -1%; Lassa entry inh: 7%; StopGo reporter: 14%; Cruzain noTriton: -1%; RE007 growth inh: 7%; Cruzain inh Det: 0.8%; SARS PLP yeast: -1%; NS1 function inh: 1%

Results for CCCCOCCCNC(=O)N[C@H](C(=O)OC)C(C)CC (stereo partly specified) ?
Marburg entry inh: 1%; Lassa entry inh: 14%; StopGo reporter: -9%; RE007 growth inh: 1%; SARS PLP yeast: 3%; NS1 function inh: -12%

How did COc1ccc(Br)cc1CNC(=O)C1CCN(S(=O)(=O)N2CCCC2)CC1 do in these assays?
Marburg entry inh: -8%; Lassa entry inh: 0%; Cruzain noTriton: 0%; RE007 growth inh: 6%; Cruzain inh Det: -0.4%; SARS PLP yeast: 8%; NS1 function inh: -11%

What do the screens show for `COc1cccc(CNS(=O)(=O)c2ccc3c(c2)CC(C)N3C(=O)C2CC2)c1` (stereo unspecified)?
Marburg entry inh: -29%[46.1 µM]; Lassa entry inh: inconclusive; StopGo reporter: -21%; RE007 growth inh: -14%; SARS PLP yeast: 2%; NS1 function inh: -10%

Results for Cc1ccccc1-c1nnc(SCC(=O)NC2CCCCC2)o1 ?
Marburg entry inh: 0%; Lassa entry inh: 5%; StopGo reporter: -13%; Cruzain noTriton: -2%; RE007 growth inh: 3%; Cruzain inh Det: -3.4%; SARS PLP yeast: -3%; NS1 function inh: -9%

How did Cc1ccc(CS(=O)Cc2ccc(C(=O)NCc3ccccc3Br)o2)cc1 (stereo unspecified) do in these assays?
StopGo reporter: -27%; RE007 growth inh: -4%; SARS PLP yeast: 1%; NS1 function inh: 8%

How did Cc1ccccc1S(=O)(=O)Nc1ncnc2scc(-c3ccccc3)c12 do in these assays?
Marburg entry inh: 7%; Lassa entry inh: 6%; StopGo reporter: -7%; Cruzain noTriton: -4%; Cruzain inh Det: -8.7%; SARS PLP yeast: inconclusive; NS1 function inh: -17%

What do the screens show for `Cc1ccc(C2CC(C(F)(F)F)n3nc(C(=O)Nc4c(C)n(C)n(-c5ccccc5)c4=O)cc3N2)cc1` (stereo unspecified)?
Marburg entry inh: inconclusive; Lassa entry inh: -1%; StopGo reporter: -9%; RE007 growth inh: -1%; SARS PLP yeast: 2%

What do the screens show for `COC(=O)c1c(O)cc(C(C)(C)C)n(-c2ccccc2)c1=O`?
Marburg entry inh: 7%; Lassa entry inh: inconclusive; StopGo reporter: -6%; Cruzain noTriton: -1%; RE007 growth inh: 1%; Cruzain inh Det: -2.6%; SARS PLP yeast: 0%; NS1 function inh: 3%

Results for CCc1ccccc1NC(=O)CSc1nnc(Cn2cnc3ccccc32)o1 ?
Marburg entry inh: 6%; Lassa entry inh: 4%; StopGo reporter: -24%; Cruzain noTriton: -1%; RE007 growth inh: -6%; Cruzain inh Det: -0.1%; SARS PLP yeast: -10%; NS1 function inh: -1%

Results for CC(=O)c1ccc(Sc2nnnn2-c2ccccc2)c([N+](=O)[O-])c1 ?
Marburg entry inh: inconclusive; Lassa entry inh: -11%; StopGo reporter: 32µM*; Cruzain noTriton: 1%; RE007 growth inh: -19%; Cruzain inh Det: 0.0%; SARS PLP yeast: -66%; NS1 function inh: -5%

How did COc1ccc(CC(=O)Nc2c3c(nn2C(C)(C)C)CS(=O)(=O)C3)cc1OC do in these assays?
Marburg entry inh: -15%; Lassa entry inh: 8%; StopGo reporter: -2%; RE007 growth inh: -15%; SARS PLP yeast: -2%; NS1 function inh: 3%

What do the screens show for `COc1ccc(N2Cc3cccc(C(=O)Nc4ccc(C)cc4)c3C2=O)cc1`?
Marburg entry inh: 0%[46.1 µM]; Lassa entry inh: inconclusive; StopGo reporter: -8%; Cruzain noTriton: -11%; Cruzain inh Det: -3.4%

Results for CC1(C)CC(=O)C2=C(C1)OC(N)=C(C#N)C2c1cccs1 (stereo unspecified) ?
Marburg entry inh: -3%; Lassa entry inh: -1%[46.1 µM]; StopGo reporter: -6%; RE007 growth inh: -11%; SARS PLP yeast: -2%; NS1 function inh: 4%

What do the screens show for `CC(C)(C)c1ccc(-c2nc3cc(NC(=O)c4cc5ccccc5o4)ccc3o2)cc1`?
Lassa entry inh: 11%[46.1 µM]; StopGo reporter: -3%; Cruzain noTriton: 5%; Cruzain inh Det: 0.5%

Results for CC(=O)C1=C(c2ccc(C)cc2)N(C(C)=O)n2c(nnc2C2CCCCC2)S1 ?
Lassa entry inh: 15%[46.1 µM]; StopGo reporter: -25%; Cruzain noTriton: -8%; Cruzain inh Det: -0.9%

Results for COc1ccc(CCNC(=O)c2cccc(Nc3nc4ccccc4nc3-n3nc(C)cc3C)c2)cc1OC ?
Marburg entry inh: inconclusive; Lassa entry inh: -1%[46.1 µM]; StopGo reporter: -21%; Cruzain noTriton: -12%; Cruzain inh Det: -0.2%

What do the screens show for `CC(=O)N1CCN(C(=O)COC(=O)COc2c(C)cc(C)cc2C)CC1`?
Marburg entry inh: -22%; Lassa entry inh: 1%; StopGo reporter: -4%; RE007 growth inh: -5%; SARS PLP yeast: 3%

How did COc1ccccc1/C=C/C(=O)OCC(=O)Nc1ccccc1Sc1ccccc1 do in these assays?
Marburg entry inh: -13%; Lassa entry inh: -14%; StopGo reporter: -6%; Cruzain noTriton: -21%; RE007 growth inh: 0%; Cruzain inh Det: -8.0%; SARS PLP yeast: -11%; NS1 function inh: 0%

What do the screens show for `COc1ccc(S(=O)(=O)Nc2c(F)cccc2F)cc1`?
Marburg entry inh: 1%[14.2 µM]; Lassa entry inh: -32%; StopGo reporter: 13%; RE007 growth inh: 4%; SARS PLP yeast: 0%; NS1 function inh: 0%

Source: PubChem (National Center for Advancing Translational Sciences (NCATS))
